# Assay outcomes: PubChem, several laboratories
# B2AR ag = human beta-2 adrenergic receptor agonism by FAP; Am2.2-beta2AR cells, FAP receptor internalization, flow cytometry; reference of the scale not given here; response, % (concentration not given with the values); actives 0.43% (n = 340,000); AID 504454;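 active = response above a set limit, near 3 SD of response in nonfluorescent compounds, cut at about 42% in these data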;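 also: stock transfer was 100 nL into about 11 µL; a reference agonist was the positive control; negative values mostly stem from fluorescent compounds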
# E coli growth = E. coli growth inhibition; Escherichia coli growth, OD600, 23 h; active compounds read low; OD600 absorbance (test concentration not listed); actives 0.21% (n = 330,000); AID 1053175;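 active = OD600 absorbance below the run mean of sample wells minus 3.6 SD, in any replicate, cut at about 0.56 in these data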;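 also: stock transfer was 300 nL into about 60 µL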
# ALR H2O2 inh = blocks human ALR sulfhydryl oxidase activity; P55789; purified ALR, DTT oxidation, H2O2 HRP-luminol luminescence; inhibition, % (test concentration not listed); actives 3.8% (n = 290,000); AID 485317;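 active = mean and each replicate at 75% or more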;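 also: stock transfer was 7.5 nL into about 7.5 µL; 0% = neutral wells and 100% = wells with inactivated enzyme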
# LANA-H2A inh = blocks KSHV LANA binding to histone H2A/H2B; Q9QR71; cell-free LANA-H2A/H2B peptide, fluorescence polarization; inhibition, % (no concentration beside the values); actives 0.6% (n = 320,000); AID 2629; in the data active = inhibition mostly above about 10%, no sharp cut-off; inactive = mostly below about 6.7%;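 also: stock transfer was 7.5 nL into about 10 µL; 0% = median of vehicle wells and 100% = median of positive control wells; one replicate is shown; the record names a cut of 25% in any replicate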
# Target sequence (Q9QR71 whole entry, looked up): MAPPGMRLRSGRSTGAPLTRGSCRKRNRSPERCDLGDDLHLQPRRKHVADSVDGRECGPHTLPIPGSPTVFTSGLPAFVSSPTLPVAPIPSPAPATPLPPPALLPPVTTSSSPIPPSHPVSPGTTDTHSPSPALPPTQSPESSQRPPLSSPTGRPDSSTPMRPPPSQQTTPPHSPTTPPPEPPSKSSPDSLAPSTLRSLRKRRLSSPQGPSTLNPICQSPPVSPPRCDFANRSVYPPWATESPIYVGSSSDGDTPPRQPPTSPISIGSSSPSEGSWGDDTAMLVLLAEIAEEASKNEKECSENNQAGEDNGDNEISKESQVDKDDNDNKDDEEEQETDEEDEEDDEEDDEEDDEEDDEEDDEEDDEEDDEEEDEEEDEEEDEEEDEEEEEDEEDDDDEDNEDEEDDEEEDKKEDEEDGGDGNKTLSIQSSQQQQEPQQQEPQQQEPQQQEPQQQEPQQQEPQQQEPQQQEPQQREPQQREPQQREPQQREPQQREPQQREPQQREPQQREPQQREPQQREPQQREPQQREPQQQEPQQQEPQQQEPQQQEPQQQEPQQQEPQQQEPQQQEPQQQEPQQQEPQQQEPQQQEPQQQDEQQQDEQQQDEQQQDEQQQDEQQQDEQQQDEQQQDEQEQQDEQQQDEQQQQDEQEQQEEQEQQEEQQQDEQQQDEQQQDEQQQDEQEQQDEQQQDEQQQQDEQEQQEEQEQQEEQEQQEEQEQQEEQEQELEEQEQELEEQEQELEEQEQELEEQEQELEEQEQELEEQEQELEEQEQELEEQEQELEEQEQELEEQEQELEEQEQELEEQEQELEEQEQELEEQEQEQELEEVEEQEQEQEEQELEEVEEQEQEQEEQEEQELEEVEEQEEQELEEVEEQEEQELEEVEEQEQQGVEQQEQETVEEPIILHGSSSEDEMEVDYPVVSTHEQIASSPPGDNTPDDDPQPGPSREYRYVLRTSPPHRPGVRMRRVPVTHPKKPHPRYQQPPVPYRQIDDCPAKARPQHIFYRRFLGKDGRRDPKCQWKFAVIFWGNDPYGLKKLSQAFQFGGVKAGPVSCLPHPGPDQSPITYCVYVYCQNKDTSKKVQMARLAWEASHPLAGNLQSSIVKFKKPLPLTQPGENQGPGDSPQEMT
# FGF22 binding = binders of recombinant human FGF22 by thermal shift; SYPRO orange fluorescence; percent of sucrose octasulfate shift, DMSO zero; actives 1.5% (n = 340,000); calls only at 9.99 µM; Q9HCT0;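 active = melting point raised past a set limit in the mean and every replicate; three in four hits are not shown here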
# UCH37 inh = blocks the human deubiquitinase UCH37. AID 588478. purified proteasome/UCH37, Ub-AMC cleavage fluorescence. inhibition, % (test concentration not listed). Q9Y5K5. actives 0.33% (n = 330,000);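 active = mean of two replicates above 20%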;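 also: 0% = compound-free wells with enzyme and 100% = wells lacking proteasome; stock transfer was 100 nL into about 20 µL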
#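 Material: human UCH37 enzyme supplied as purified proteasome complex / Amount: 0.15 nM proteasome as dispensed / Buffer or medium: pH 7.4 Tris-HCl (50 mM) with ovalbumin, ATP-MgCl2, DTT / Times: preincubation 30 min, reaction 25 min, room temperature / Technique: AMC fluorescence from Ub-AMC cleavage, excitation 355 nm, emission 460 nm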
# HNF4A DNA FP = change in binding of human HNF4 alpha to DNA | HNF4a-FITC DNA binding, fluorescence polarization, 1 h | actives 0.3% (n = 360,000) | activity change, % at 10 µM | AID 1224865; in the data active = activity change above about 30%, passing the limit was not always enough;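 also: controls were the assay level and a saturating level of protein; the project sought stronger binding though the title names inhibitors; some compounds called inactive have numbers as strong as hits; positive values seem to mean higher polarization but the record does not say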
# Numbers without * were called inactive; i = inactive; nt = not tested or not shown; & = joins results of further samples.
SMILES,B2AR ag,E coli growth,ALR H2O2 inh,LANA-H2A inh,FGF22 binding,UCH37 inh,HNF4A DNA FP
CC(C)(C)Cc1nnc(NC(=O)Cc2ccc([N+](=O)[O-])cc2)s1,-4.9,0.7,59.4,-0.4,nt,3.1,1.4
COc1ccccc1-c1nc(SCC(=O)N2CCOCC2)n[nH]1,-3.3,0.692,1.0,-2.1,i,2.0,0.1
COc1ccc(N(CC(=O)Nc2ccc(OC)c(Cl)c2)S(=O)(=O)c2c(C)noc2C)cc1,-4.9,0.692,-6.7,3.6,nt,5.5,0.7
Cc1cc(C)cc(NC(=O)c2cccc(NC(=O)C3C4CC5OC(=O)C3C5C4)c2)c1 (centres undefined),-0.2,0.68,29.3,-1.1,i,1.7,-1.2
O=C(NCc1cccs1)Nc1ccc2c(c1)OCO2,6.1,0.67,1.6,1.6,nt,2.1,0.5
Cc1cc(C)n(C(=O)c2ccc(C)c(S(=O)(=O)N3CCCC3)c2)n1,-4.6,0.715,-0.2,1.3,nt,-0.8,1.1
O=C(OCC(=O)N1CCN(C(=O)c2ccco2)CC1)c1cc(-c2ccco2)nc2ccccc12,9.7,0.772,93.4*,-0.8,i,-443.8,-57.4
N#Cc1c(NC(=O)Cn2nc(C(F)(F)F)c3c2CCCC3)sc2c1CCC2,4.1,0.671,nt,-4.1,nt,4.0,-1.7
Cc1cc(OC(=O)c2cccc(F)c2)c([N+](=O)[O-])c(=O)[nH]1,-3.8,0.734,-0.1,6.0,i,8.6,1.3
C#CCOCCOCCOCCNc1nc(N2CCN(C(=O)CCCCCCCCCCNC(=O)Cn3cc(C[C@@H](C)O)nn3)CC2)nc(N2CCN(C(=O)CCCCCCCCCCNC(=O)[C@@H](CCC(=O)O)n3cc(CCCCCN)nn3)CC2)n1,27.6,nt,-3.0,-1.1,i,1.7,1.3
Cc1cccc(C)c1NC(=S)Nc1ccccc1C(=O)NCc1ccco1,0.7,nt,-5.0,0.6,nt,-2.9,1.0
Cc1ccc(-n2nnnc2SCC(=O)NCC2(N3CCOCC3)CCCCC2)cc1,-3.3,0.688,nt,nt,i,0.5,-4.5
COc1ccc(NC(=O)c2cc(N3C(=O)C4C5CCC(C5)C4C3=O)ccc2Cl)c(OC)c1 (centres undefined),4.1,0.699,-15.8,-5.3,i,0.9,3.5
O=C1c2cnc3nc(SCc4ccc(Cl)cc4)nn3c2CC2c3ccccc3CCN12 (centres undefined),9.1,0.697,-3.6,2.5,nt,-83.3,-0.9
CCOC(=O)CN(C)C(=O)C1CCCN1C(=O)OC(C)(C)C (centres undefined),-0.4,0.706,-9.6,3.6,i,2.6,-2.2
Cc1ccc(C(=O)N2NC(c3ccc(F)cc3)C3C(=O)N(c4ccc(C)c(C)c4)C(=O)C32)cc1 (centres undefined),14.4,0.731,-6.2,0.7,i,3.5,-3.8
CCCCNC(=O)CCn1c(=O)c2ccccc2n(Cc2ccc(Cl)cc2)c1=O,-17.9,0.666,1.0,-0.3,i,2.3,0.4
CCN1CCN(CCC(=O)Nc2cccc(C)c2)CC1,1.8,0.699,-13.9,3.7,i,-0.1,2.2
C/C(=N\Nc1ccc(S(N)(=O)=O)cc1[N+](=O)[O-])c1ccco1,-2.0,nt,-8.2,-1.7,i,nt,8.2
Cc1ccc(-c2nnc(SCC(=O)N3CCCc4ccccc43)n2N)cc1,3.3,0.79,-13.3,2.8,nt,2.8,3.2
Nc1nc(SCC(=O)NC2CCCC2)[nH]c(=O)c1NC(=O)c1cccs1,7.1,0.699,-1.4,3.2,i,-2.0,1.7
COc1ccc(N2C(=O)C(Cl)=C(N3CCCC(C)C3)C2=O)cc1 (centres undefined),-2.8,0.736,3.4,-0.3,nt,5.0,1.4
COC(=O)c1sccc1NC(=O)c1csc(C)c1,2.5,0.664,-0.7,-1.7,nt,1.3,2.6
COc1cc(C(C)=O)ccc1OCC(O)CN1CCN(c2ccc(C)c(C)c2)CC1 (centres undefined),-10.1,0.653,98.0*,-2.0,i,0.7,-4.5
CCOc1c(OC(C)=O)ccc(/C=C/c2ccc3cccc(OC)c3n2)c1[N+](=O)[O-],19.8,0.69,-13.5,-1.9,i,2.0,-0.8
Cc1ccc(NS(=O)(=O)c2ccc(-c3ccc(=O)[nH]n3)o2)cc1N(C)C,10.2,0.598,8.8,3.3,i,0.7,0.8
Cc1ccc(C(=O)NC2CCCCC2)cc1,2.0,0.633,0.4,9.5,i,1.4,3.8
COc1cc(OC)cc(-c2c(-c3cccs3)c3cc(-c4ccc(N(C)C)nc4)ccc3n2C)c1,-10.1,0.705,-4.2,2.6,i,-46.9,-2.4
O=C(Nc1ccc2[nH]ncc2c1)c1ccc(F)cc1,0.5,0.698,-21.3,2.4,i,3.7,-0.7
O=C(COc1cccnc1[N+](=O)[O-])N1CCN(C(=O)c2ccco2)CC1,-4.3,0.717,-4.3,-1.4,i,4.4,-2.5
CC(Sc1nccn1C)C(=O)c1c(N)n(C)c(=O)n(C)c1=O (centres undefined),-13.1,0.693,-0.3,4.0,i,0.8,-1.1
Cc1cc(C)c(NC(=O)c2ccccc2CCc2ccccc2)c(C)c1,3.2,0.695,-8.0,4.4,nt,2.6,2.2
O=C(CNS(=O)(=O)c1ccc(Br)cc1)OCc1cc(=O)n2cc(Br)ccc2n1,nt,0.648,-2.7,-1.2,i,-2.0,nt
O=C(O)/C=C/C(=O)Nc1c(F)cccc1F,15.5,0.66,-16.3,-2.6,i,2.1,-1.5
CCSC(=O)N=Nc1ccc(O)cc1,-8.3,nt,nt,nt,i,nt,-2.9
Cc1cc(C(=O)OCC(=O)NC2CCCC(C)C2C)c(C)o1 (centres undefined),-2.5,0.706,-1.9,-0.5,i,-0.5,3.3
O=C(CCCOc1ccccc1)Nc1cccc(S(=O)(=O)N2CCOCC2)c1,4.7,0.696,-6.6,1.7,i,2.8,-3.9
CC(OC(=O)/C=C/c1cccs1)C(=O)Nc1ccc(S(N)(=O)=O)cc1 (centres undefined),-15.8,0.69,1.7,2.7,i,6.1,0.9
Cc1ccc(NC(=S)N2CCN(S(=O)(=O)c3ccccc3)CC2)cc1,11.0,0.68,-14.0,-0.2,i,4.1,3.3
CCCCN(C(=O)c1cc(S(=O)(=O)N2CCCCC2)ccc1Cl)c1c(N)n(CCC)c(=O)[nH]c1=O,6.5,0.718,nt,nt,i,3.8,-1.8
CSc1ccccc1NC(=O)CN(C)CC(=O)c1c(C)[nH]c2ccccc12,-3.0,0.665,-1.1,-4.9,i,1.6,-1.5
O=C(NCCc1ccccc1)c1nc2nc(-c3cccs3)cc(C(F)(F)F)n2n1,-7.6,0.667,-13.8,-0.6,nt,i,-1.0
O=C1CCC(=O)N1c1ccc(S(=O)(=O)Nc2cccc(Br)c2)cc1,4.0,nt,-8.0,-1.3,i,nt,0.7
CCC(=O)N1CCN=C1SCc1cccc(C(F)(F)F)c1,-9.4,0.728,98.6*,-0.2,i,0.6,-3.2
O=C1C(Cc2ccccc2)Nc2ncnc(N3CCOCC3)c2N1Cc1ccc(Br)cc1 (centres undefined),-0.2,0.704,-0.2,1.4,i,0.5,-0.7&0.3
CCOC(=O)Nc1ccc(OC)cc1S(=O)(=O)N1CCCCC1,-7.0,0.682,-2.1,2.6,nt,29.3*,-0.8
CCOC(=O)N1CCC(NC(=O)c2ccc3c(c2)N(CC)CCS3)CC1,-1.1,0.795,37.3,3.5,i,-407.5,2.8
O=C(CN1CCOCC1)Nc1ccccc1F,-3.6,0.664,2.0,-0.7,i,0.8,0.1
COc1ccc(-c2c(NC(=O)C(C)C)n(C)c3ccccc3c2=O)cc1,2.9,0.721,-2.7,4.3,i,-157.1,4.7
Cc1cccc(N=C2N=C(N)c3ccccc32)c1,-5.0,0.75,nt,2.1,nt,4.6,-1.2
COc1cc(NC(=O)CSc2nc(=O)n(CCN3CCOCC3)c3c2CCCC3)cc(OC)c1,-2.3,0.605,10.2,-1.2,i,1.1,-3.7
COc1ccc(OC)c(NC(=O)COC(=O)CN2C(=O)NC3(CCCC3)C2=O)c1,-2.1,0.701,0.6,-2.7,i,1.1,-1.7
COc1ccc(COC(=O)c2nc3nc(C)cc(C)n3n2)cc1F,3.3,0.726,-6.2,-4.7,nt,0.2,1.9
O=C(Cn1nc(Cc2ccncc2)c2ccccc2c1=O)Nc1cccnc1Cl,-8.3,0.702,-8.8,-8.7,i,0.2,6.5
O=C(NC(=S)Nc1cccnc1)c1cccs1,3.5,0.688,nt,5.3,i,2.2,-4.5
CC(=O)c1c(O)cc(=O)n(-c2ccccc2)c1-c1ccc(C)cc1,-11.3,0.755,-8.6,0.9,nt,4.5,-4.3

# More entries.
SMILES,B2AR ag,E coli growth,ALR H2O2 inh,LANA-H2A inh,FGF22 binding,UCH37 inh,HNF4A DNA FP
CC(C)c1ccc(S(=O)(=O)N2CCN(C(=O)c3cccc(S(=O)(=O)N4CCOCC4)c3)CC2)cc1,-5.5,0.708,nt,nt,i,-0.4,1.7
O=C(CCCC(=O)OCC(Cl)=C(Cl)Cl)Nc1ccc(F)cc1,8.7,0.681,-27.2,0.0,i,3.5,-2.9
c1ccc(-c2ccc3[nH]ccc3c2)cc1,1.2,0.643,10.5,-5.4,i,0.8,5.2
COc1cc(NC(=O)CSCc2ccccc2)c(C(=O)O)cc1OC,-2.6,0.675,76.2*,-7.5,i,1.7,-1.9
Nc1nc(Nc2ccc(Cl)cc2)nc(NCc2ccco2)c1[N+](=O)[O-],1.1,nt,nt,-2.7,nt,nt,-0.2
COc1cc(Cl)c(C)cc1NC(=O)COC(=O)C1=COCCO1,-7.5,0.644,-6.9,5.4,i,0.5,1.4
CCCOc1ccc(-c2cc(C(F)(F)F)c(C#N)c(SCC(=O)O)n2)cc1,8.7,0.645,2.5,-6.7,i,-285.2,2.6
CCOc1cccc(CN2CCC(N3CCC(C(=O)NCC4CCCO4)CC3)CC2)c1 (centres undefined),-10.3,0.68,-2.8,2.0,i,1.4,4.9
N#C/C(=C\c1ccccc1)C(=O)NNS(=O)(=O)c1cccc([N+](=O)[O-])c1,5.8,0.651,30.8,-3.0,i,3.0,1.3
CCOc1cc(C(C(=O)NCC2CCCO2)N(C(=O)Cn2nnc3ccccc32)c2ccccc2C)ccc1O (centres undefined),2.7,0.673,15.5,2.8,i,1.8,-0.8
CCOC(=O)N1CCC(NC(=O)c2cc(S(=O)(=O)N(CC)CC)ccc2F)CC1,-3.0,0.661,-4.9,0.5,nt,2.3,-2.0
O=C(/C=C/c1cccc(Cl)c1)c1ccc([N+](=O)[O-])o1,65.8*,nt,7.9,-0.4,i,1.8,0.0
COc1cc(OC)cc(C(=O)Nc2ccc3nc4n(c(=O)c3c2)CCCC4)c1,3.6,0.705,nt,1.6,i,-72.8,-6.5
Cc1ccc(S(=O)(=O)Cc2nc3ccccc3c(=O)[nH]2)cc1,3.5,0.651,1.7,-0.1,nt,3.6,2.3
CC1(C)NC(=O)N(CC(=O)NNC(=O)c2ccccc2F)C1=O,-4.1,0.682,nt,-0.4,i,4.1,2.6
O=c1c2sccc2nc(SCc2cc(=O)n3cc(Br)ccc3n2)n1Cc1ccccn1,-0.2,0.681,nt,-2.5,i,-8.2,0.6
CC(Sc1nnc(N)s1)C(=O)Nc1nccs1 (centres undefined),3.9,0.707,nt,-2.2,i,1.1,0.9
Cc1ccc(S(=O)(=O)N2c3ccccc3NC(=O)C2CC(=O)Nc2ccccc2)cc1 (centres undefined),-0.8,0.765,-6.0,-4.3,nt,1.1,-0.3
Cc1occc1C(=O)Nc1cccc(C(=O)NCc2ccccc2)c1,-4.0,0.646,11.2,4.0,nt,1.9,1.1
CC(=O)c1cccc(NC(=O)N2CCc3ccccc3C2)c1,2.8,0.645,-1.7,-1.5,nt,2.7,1.7

# A portion of the library; rates above refer to the full screens.
